HSD17B inhib: qHTS Assay for Inhibitors of HSD17B4, hydroxysteroid (17-beta) dehydrogenase 4. 3-hydroxyacyl-CoA dehydrogenase type-2 (Homo sapiens), Q99714. recombinant HSD17B10, NADH fluorescence kinetic; many of its hits are not listed in these tables. Potency, µM (titrated, usually from 57.1 µM), without a hit: top-dose activity change, negative = inhibition, usual class: inhibitors. actives 7.6% (n = 75,000); active means well fitted inhibition curve with a large enough effect; inconclusive means small, poorly fitted or top-dose-only effect; inactive means no such curve, though single readings can be large or run the other way;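 further: the protocol describes HADH2 (HSD17B10) and not the HSD17B4 of the title; nearly all actives have a fitted effect of over 70% in size; most hits overshoot -100% by far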
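20 nM HADH2, pH 9.0 Tris/Tween; cpd preinc 15 min RT; start w/ 1 mM NAD+ + 90 uM b-hydroxybutyryl-CoA; kinetic fluor ex360/em450 q30s x 4 min; delta last-first.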
An asterisk follows results filed as active; i = inactive; ? = inconclusive; & = joins results of further samples; [ ] = dose if it differs, or a comment. On the % scale 0 is the no-effect control and ±100 the full control effect; potency means the concentration at half of the fitted maximal effect. An excerpt (hit frequency here may not be typical).

#	compound	HSD17B inhib
1	CCOc1ccc(-c2noc(-c3cccnc3)n2)cc1OC	-0.8%
2	O=C(C1CCN(S(=O)(=O)c2cnc[nH]2)CC1)N1CCc2ccccc2C1	4.4%
3	CCC(C)N1CC(O)=C(c2nc3ccccc3[nH]2)C1=N (centres undefined)	-1.9%
4	O=C(CN1CCN(Cc2ccccc2)CC1)NC(=O)NC1CCCCC1	7.6%
5	CCCNS(=O)(=O)c1cccc2cccnc12	-6.9%
6	Cc1cccc(N2CCCn3c2nc2c3c(=O)n(CCN3CCOCC3)c(=O)n2C)c1	-5.5%
7	CN(C)c1ccc(-c2nn3c(-c4ccc(Cl)cc4Cl)nnc3s2)cc1	8.1%
8	CC(C)(C)N1C(=O)[C@H]2[C@H]3[C@H](O)[C@H](O)C/C(=N/OCc4ccccc4)[C@@H]3CC[C@@H]2C1=O	-9.8%[11.4 µM]
9	CCOC(=O)CSc1nc2c(c(-c3ccc(C)o3)c1C#N)CCCC2	?
10	NCCCNCCCCN(CCCN)/[N+]([O-])=N/O	-4.5%
11	CCCCN(C)S(=O)(=O)c1cc(Br)cc2c1N(C(=O)C1CC1)CC2	-19.7%
12	CC1CCCCC1NC(=O)C1CCN(C(=O)NC2CCCCC2)CC1 (centres undefined)	4.6%
13	Cc1onc(C(=O)N2CCC(C(N)=O)CC2)c1-c1ccccc1Cl	3.7%
14	CSc1nc2ccccc2c(=O)n1N	5.9%
15	CC1=C(C(=O)Nc2ccccn2)C(c2ccc(N(C)C)cc2)n2ncnc2N1 (centres undefined)	1.6%
16	CC(C)C(=O)Nc1nnc(SCC(=O)NC2CC2)s1	9.8%
17	COC(=O)c1ccccc1NC(=O)CN(C)S(=O)(=O)c1ccc(OC)c(C)c1	2.8%
18	COc1nc(N(C)C)nc(-n2nnc(C(C)=O)c2C)n1	-0.6%
19	Cc1ccc(S(=O)(=O)Nc2cc(C(=O)N3CCOCC3)ccc2N2CCCCC2)cc1	2.2%
20	O=C1C[C@H](c2ccccc2)[C@@H](c2ccc(Br)cc2)O1	1.8%[11.4 µM]
21	C#CCNc1nc(C(C)C)nc2c1nnn2Cc1ccccc1F	-1.8%
22	Nc1ccc2nc3n(c(=O)c2c1)CCC3	25.1µM*
23	COC(=O)c1ccc2c(=O)n(CC3CCCO3)c(SCC(=O)Nc3ccccc3OC)nc2c1 (centres undefined)	-7.8%
24	Cc1cc(C(=O)CSc2nnc(C3COc4ccccc4O3)n2C)c(C)n1-c1ccc(F)cc1 (centres undefined)	10.0%
25	O=C(CSc1nn(-c2ccc(F)cc2)c(=S)s1)NC(=O)NCc1ccco1	-25.8%
26	O=C(CN1C(=O)COc2ccccc21)N(CCCN1CCOCC1)CC1CC=CCC1 (centres undefined)	3.9%
27	c1ccc2[nH]c(N3CCOCC3)nc2c1	2.7%
28	COc1ccc2[nH]cc(CCNc3cc(-c4ccoc4)ncn3)c2c1	2.2%
29	COc1ccc(NC(=O)C2CCN(Cc3cnn(-c4ccccc4)c3-n3cccc3)CC2)cc1OC	-6.7%
30	COC(=O)COc1ccc(S(=O)(=O)NCc2ccco2)cc1	6.4%
31	O=C(c1ccco1)N1CCN(c2nc3ccccc3n3nnnc23)CC1	20µM*
32	O=C(NCCO)c1ccc(-n2c(=O)c(=O)[nH]c3ccccc32)cc1	-9.1%
33	N/C(=N\O)c1ccc(NC(=O)c2cccs2)cc1	1.9%
34	COc1ccc(Nc2ncnc3c2cnn3Cc2ccccc2)cc1	?
35	COc1ccc(OCCCC(=O)Nc2nncs2)cc1	5.5%
36	CS(=O)(=O)N(CC(=O)Nc1ccccc1C(=O)N1CCOCC1)c1ccc2c(c1)OCO2	-1.5%
37	CCOC(=O)CSc1nc2cc(C)cc(C)c2cc1C#N	?
38	CCOC(=O)N1CCN(C(=O)CN(C2CCCCC2)S(=O)(=O)c2ccc(C)cc2)CC1	-3.0%
39	Cc1cc(C)c2[nH]c(=O)c(C(c3nnnn3C3CCCC3)N3CCOCC3)cc2c1 (centres undefined)	-6.2%
40	NS(=O)(=O)c1ccc(CCNC(=O)CCC2COc3ccccc3O2)cc1 (centres undefined)	5.7%
41	Cc1ccc2[nH]c3c(c2c1)CN(C(=O)CN1CCN(c2ccccc2F)CC1)CC3	3.6%
42	CC(C)[C@H](O)C1=CCCCC1=O	-0.2%[11.4 µM]
43	CCOC(=O)C1CCCCN1Cc1cc(Cl)ccc1O (centres undefined)	-1.7%
44	O=C(O)/C(=C1/OC(=O)c2ccccc21)c1ccccc1	150.3%[activator]
45	COCCSc1nnc(-c2cccc(C#N)c2)n1C	-1.1%
46	C/C(N)=C(\C#N)C(=O)NCc1ccccn1	11.3%
47	CC(C)C(c1nnnn1Cc1ccc(F)cc1)N1CCN(C(=O)c2ccco2)CC1 (centres undefined)	-29.1%
48	CN(CC(=O)O)S(=O)(=O)c1cc(Cl)ccc1Cl	3.0%
49	COc1ccc(-c2nnc(SCC(=O)N3CCOCC3)o2)cc1	-1.2%
50	Cc1nn(-c2ccccc2)c2sc(C(=O)n3cccn3)cc12	12.6µM*
51	COCCN1C(=O)C(=O)/C(=C(/O)c2ccc(OCC(C)C)cc2)C1c1cccnc1 (centres undefined)	9.2%
52	Cc1cc(O)ccc1Nc1nc(-c2sc(N)nc2C)cs1	6.5%
53	CN(C(=O)c1cc2sccc2n1C)C1CCCCC1	-6.0%
54	FC(F)(F)c1cc(-c2ccco2)nc(NCc2cccnc2)n1	25.1µM*
55	CCN(CC)C(=O)CP(=O)(c1ccccc1)c1ccccc1	1.5%
56	CC(C)n1c(SCC(N)=O)nc2c1c(=O)[nH]c(=O)n2C	-13.1%
57	CC(=O)NCCNc1nc(-c2ccccc2CN(C)C)nc2ccccc12	0.6%
58	CCOC(=O)c1oc2ccc(S(=O)(=O)n3nc(-c4ccc(OC)cc4)cc3N)cc2c1C	-2.8%
59	CC(C)(/C=N/O)/[N+]([O-])=C/c1ccco1	7.1%
60	CCOC(=O)c1cc2sccc2n1Cc1ccccc1	-13.0%

Four entries from above, with each value named:
[60] CCOC(=O)c1cc2sccc2n1Cc1ccccc1
  HSD17B inhib = -13.0%
[19] Cc1ccc(S(=O)(=O)Nc2cc(C(=O)N3CCOCC3)ccc2N2CCCCC2)cc1
  HSD17B inhib = 2.2%
[28] COc1ccc2[nH]cc(CCNc3cc(-c4ccoc4)ncn3)c2c1
  HSD17B inhib = 2.2%
[4] O=C(CN1CCN(Cc2ccccc2)CC1)NC(=O)NC1CCCCC1
  HSD17B inhib = 7.6%

Later entries:
#	compound	HSD17B inhib
61	Cc1nc(NCCc2cnc[nH]2)c2oc3ccccc3c2n1	-2.8%
62	O=C1CC(c2ccccc2)C(C(=O)Nc2ccccc2F)N1 (centres undefined)	1.7%
63	O=C(C1CCN(C2CC(=O)N(c3ccc(F)cc3)C2=O)CC1)N1CCOCC1 (centres undefined)	2.8%
64	COc1ccc(C(=O)Nc2cccc(C(=O)N3CCCC3)c2)cc1	1.3%
65	Cc1nc2ccccn2c1C(=O)NCc1ccc2c(c1)OCO2	8.3%
66	CCN(c1cccc(C)c1)c1ncnc2nc[nH]c12	-6.5%
67	c1ccc(Cc2nn3c(Cn4cnc5ccccc54)nnc3s2)cc1	-1.6%
68	CN(C)c1ccc(C(c2nnnn2C(C)(C)C)N2CCc3ccccc3C2)cc1 (centres undefined)	12.9%
69	COc1ccc(N(CC(=O)NC2CCCC2)C(=O)Cn2nnc(-c3ccc(C)cc3)n2)cc1OC	5.1%
70	O=C(O)c1ccc(-n2cccc2)cc1O	31.6µM*
71	CN(C)S(=O)(=O)c1cccc(C(=O)N2CCN(Cc3ccccc3)CC2)c1	14.3%
72	CCN(CC)S(=O)(=O)c1ccc2nc(COC(=O)c3n[nH]c4ccccc34)[nH]c2c1	?
73	COC(=O)c1cc(Br)c(=O)n(Cc2ccc(OC)c(OC)c2)c1	1.5%
74	Cc1c(C(=O)O)oc2ccc(S(=O)(=O)N3CCC(C)CC3)cc12	-2.0%
75	COc1cc(-c2nnn(CC(=O)NC3CCS(=O)(=O)C3)n2)ccc1OCc1ccccc1 (centres undefined)	3.1%
76	CC(=O)c1ccc(NC(=O)C2CCCN2S(=O)(=O)c2ccc(C)cc2)cc1 (centres undefined)	-6.8%
77	O=C(CSc1nnc(CNC(=O)c2ccccc2F)o1)c1ccccc1	-4.3%
78	O=C(Nc1ccc2c(c1)OCO2)c1ccc(Br)c(S(=O)(=O)N2CCCC2)c1	7.1%
79	COc1cccc(CNC(=O)c2ccccc2N)c1	-5.0%
80	Cc1ccc(NC(=O)CCCC(=O)O)c(Br)c1	2.3%
81	Cc1cc(C)n2nc(CC(=O)NC3CCCCCC3)nc2n1	-4.5%
82	O=C(Nc1ccccc1C(F)(F)F)N1CCC(n2c(=O)[nH]c3ccccc32)CC1	3.4%
83	CCN1C2=C(C(=O)CCC2)C(c2ccc(O)c(Br)c2)C2=C1CCCC2=O	?
84	Cc1cccc(OCCCC(=O)Nc2ccc(S(=O)(=O)Nc3onc(C)c3C)cc2)c1C	7.7%
85	CCCCCCC/C=C/C1=CC2(C)CC1(C)C(CCCCCCC)CC2=O (centres undefined)	-4.7%[11.4 µM]
86	COc1ccc(NC(=O)c2cnn3c(C(F)(F)F)cc(-c4ccco4)nc23)cc1OC	-22.7%
87	c1ccc(Nc2nc(-c3cccnc3)cs2)nc1	-0.4%
88	COc1ccc(N=c2scc(-c3ccc(S(=O)(=O)N4CCOCC4)cc3)n2CCCO)cc1	-6.4%
89	COCCn1c(-c2ccccc2F)n[nH]c1=S	6.2%
90	COc1cc(Cn2c(-c3nonc3N)nc3ccccc32)ccc1C	8.6%

Next section
nr | molecule | HSD17B inhib
91 | Cc1ccc2oc3c(c(=O)c2c1)C(c1cccc(O)c1)N(c1ccccn1)C3=O (centres undefined) | 7.1%
92 | CCOc1ccc(-c2nn[nH]n2)cc1 | 1.6%
93 | Cc1cc(C(=O)N2CCN(S(C)(=O)=O)CC2)cs1 | -0.2%
94 | CC1=Nn2c(nnc2-c2ccc(F)cc2)SC1 | -0.3%
95 | O=C(C1CCN(S(=O)(=O)c2cnc[nH]2)CC1)N1CCN(Cc2ccc3c(c2)OCO3)CC1 | 2.8%
96 | CCC(CC)C(=O)NCCNC(=O)C(CC)CC | 8.7%
97 | CN1C(=O)CCC1c1cccnc1 (centres undefined) | -7.3%&7.1%
98 | N#Cc1c(N2C(=O)C3C4C=CC(C4)C3C2=O)sc2c1CCC2 (centres undefined) | 5.3%
99 | COc1ccc(-n2c(SCc3ccc(C#N)cc3)nnc2-c2ccccn2)cc1 | -9.9%
100 | O=C(CSc1nnc(-c2c[nH]c3ccccc23)n1-c1ccc(F)cc1)NCc1ccco1 | -7.7%
101 | COc1ccc(CN2CCOCC2)cc1Br | -0.3%
102 | CCOC(=O)c1c(NC(=O)c2nn(CC)cc2Br)sc(C)c1C | i
103 | COCCNC(=O)C(c1cccs1)N(CCc1ccccc1)C(=O)Cn1nnc2ccccc21 (centres undefined) | 0.0%
104 | C[C@@H](C(=O)NCc1ccccc1)[C@H]1C[C@]1(C)[C@H](NC(=O)OCc1ccccc1)c1ccccc1 | -2.6%
105 | CCOC(=O)c1cn(CC(=O)Nc2ccc3c(c2)OCCO3)nn1 | -17.8%
106 | CCC(=O)N(Cc1cc2cccc(C)c2[nH]c1=O)c1ccccc1OC | ?
107 | CCN(CC)CC(=O)c1c[nH]c2ccc(C)cc12 | 2.2%
108 | Cc1ccccc1OCC(O)Cn1c(NCc2ccco2)nc2c1c(=O)[nH]c(=O)n2C (centres undefined) | 14.1%
109 | CC(=O)c1c(C)oc(C)c1CSCc1ccc(C(=O)O)o1 | ?
110 | O=C(NCc1ccccn1)C1COc2ccccc2O1 (centres undefined) | -2.1%
111 | CCOC(=O)C1Cc2ccccc2CN1 (centres undefined) | -0.3%
112 | CN(C)CC1(c2ccccc2)CCCC1 | 5.8%
113 | O=C(NCCCN1CCCC1=O)c1csc2ccccc12 | 3.7%
114 | CCOC(=O)N1CCN(c2nc3ccccc3nc2C(C#N)C(=O)NCCc2ccccc2)CC1 (centres undefined) | 9.0%
115 | CC1Cc2ccccc2N1Cc1cc(=O)n2ccsc2n1 (centres undefined) | -10.3%
116 | CC1(C)CC2CC(C)(CN2C(=O)c2cc(-c3ccccc3O)on2)C1 (centres undefined) | -23.5%
117 | CN(CC(=O)Nc1ccc2c(c1)OCCO2)S(=O)(=O)c1cccc2cccnc12 | -1.8%
118 | COC(=O)CSc1n[nH]c(-c2ccncc2)n1 | 6.8%
119 | COCCn1c(COc2ccc(OC)cc2)nc2ccccc21 | -0.1%
120 | COc1ccc(-c2cnc(SCC(=O)Nc3cc(C)on3)n2Cc2ccco2)cc1 | -4.1%
121 | O=C(O)Cn1c(SC2CCCCC2)nc2ccccc21 | 11.4%
122 | C1CCN(c2nc(N3CCCCC3)nc(N3CCNCC3)n2)CC1 | 8.5%
123 | Cc1ccc(C(=O)O)cc1[N+](=O)[O-] | 1.5%
124 | CS(=O)(=O)N1CCCC(C(=O)NCCc2ccc(Cl)cc2)C1 (centres undefined) | 9.5%
125 | COc1ccc(C2NC3=C(CCC3)C3(C#N)C4(N=C(N)C23C#N)OCCO4)cc1 (centres undefined) | 3.9%
126 | COc1ccc(-c2nnc(SCC(=O)NC(=O)NCc3ccco3)o2)cc1 | -8.4%
127 | Nc1cccc(C(=O)Nc2ccc(N)cc2Cl)c1 | 3.6%
128 | CCCCN(CC)CCNS(=O)(=O)c1ccc2c(c1)oc(=O)n2C | 6.1%
129 | Cc1ccc(S(=O)(=O)Cn2cnnn2)cc1 | -0.3%
130 | CC(C)(C)c1cc(CN2CCOCC2)c(C(=O)O)o1 | -2.2%

Part of the list above in order of length of the SMILES, ascending:
nr | molecule | HSD17B inhib
119 | COCCn1c(COc2ccc(OC)cc2)nc2ccccc21 | -0.1%
126 | COc1ccc(-c2nnc(SCC(=O)NC(=O)NCc3ccco3)o2)cc1 | -8.4%
116 | CC1(C)CC2CC(C)(CN2C(=O)c2cc(-c3ccccc3O)on2)C1 (centres undefined) | -23.5%
